NS1 inh: inhibitors of influenza NS1 protein function. S. cerevisiae slowed by influenza A NS1, growth recovery by OD600. Potency, µM (titrated, usually from 46.1 µM), without a hit: top-dose activity, positive = more growth. 0.4% of 270,000 active. AID 2326; note: actives are rising curves; nearly all actives have a fitted effect of over 50% in size
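S. cerevisiae expressing influenza A NS1, grown in glucose, washed, then diluted 1:100 into pH 6.0 -URA galactose medium with 23 nl compound. Growth recovery read as OD600; NS1-free strain serves as control.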
Marburg entry inh: blocks Marburg virus binding to or entry into cells | Marburg virus pseudotyped entry inhibition, cell reporter; control for the full effect not named in the record; about a third of the inactives were read at about 46 µM | Potency, µM (top dose mostly 37.8 µM), inactives show at the highest dose activity change, negative = inhibition, usual class: inhibitors | 1.8% of 300,000 active | AID 540276; active = well fitted inhibition curve with a large enough effect; inconclusive = small, poorly fitted or top-dose-only effect, or effect the other way; inactive = flat fitted curve, though single readings scatter; tested in HEK293 cells; about a fifth of its hits are not listed in these tables; note: % is set by controls: 0 for no effect and ±100 for the full control effect; luciferase read-out
SARS PLpro yeast: inhibitors of SARS-CoV papain-like protease in yeast; S. cerevisiae expressing SARS-CoV PLpro, growth rescue; control for the full effect not named in the record; Potency, µM (series often up to 32.9 µM), without a hit: at the top dose activity, positive = growth rescue; 0.19% of 330,000 active; AID 485353; note: 0% is about no effect; nearly all actives have a fitted effect of over 55% in size; growth read by luminescence after 48 h
RE007 growth inh: less growth of the S. pombe RE007 Vpr strain | S. pombe RE007 Vpr strain, BacTiter-Glo ATP luminescence, 24 h; control for the full effect not named in the record | 0.21% of 360,000 active | Potency, µM (titrated, usually from 92.2 µM), inactives show at the highest dose activity change, negative = less growth; active = well fitted falling curve with a large enough effect; inconclusive = small, poorly fitted or top-dose-only effect; inactive = no such curve, though single readings can be large or run the other way;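 note: % is set by controls: 0 for no effect and ±100 for the full control effect; nearly all actives have a fitted effect of over 50% in size; the assay follows cell death caused by Vpr and the record does not say whether a fall means rescue or toxicity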
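Fission yeast strain RE007, carrying one chromosomally integrated HIV-1 vpr copy, was seeded at OD 0.01 in PMG+AL medium with 23 nL pinned compound. After 24 h at 30 °C and 99% humidity, viability was read by BacTiter-Glo luminescence.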
Cruzain noTriton: blocks cruzain activity in detergent-free assay; P25779; Potency, µM, inactives show max response, negative = inhibition, most hits filed as inhibitors; 2.3% of 200,000 active; AID 1476; purified cruzain, Z-FR-AMC fluorescence, no detergent; active = well fitted curve in the direction sought with a large enough effect; inconclusive = small, poorly fitted or top-dose-only effect, or another doubt; inactive = no such curve, though single readings can be large; an effect the other way counts as inactive or inconclusive;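 note: plate controls were enzyme without inhibitor for no effect and buffer without enzyme for full effect; nearly all actives have a fitted effect of over 40% in size; top concentration of the series not given in the record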
Target sequence (P25779 123-467 limits assumed): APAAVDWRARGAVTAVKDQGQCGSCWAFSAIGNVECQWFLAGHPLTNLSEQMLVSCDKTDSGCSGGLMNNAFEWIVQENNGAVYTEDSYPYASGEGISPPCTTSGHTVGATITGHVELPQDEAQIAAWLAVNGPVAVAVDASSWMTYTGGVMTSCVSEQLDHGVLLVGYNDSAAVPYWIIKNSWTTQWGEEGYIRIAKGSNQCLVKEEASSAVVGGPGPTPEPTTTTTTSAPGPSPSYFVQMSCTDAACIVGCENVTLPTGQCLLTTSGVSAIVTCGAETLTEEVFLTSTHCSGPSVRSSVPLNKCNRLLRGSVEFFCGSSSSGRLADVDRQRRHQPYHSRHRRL
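Purified cruzain at 1.5 nM, pre-incubated 15 min with compound at room temperature in 100 mM sodium acetate pH 5.5, 5 mM DTT, 0.00005% Triton X-100. Reaction started with 2 uM Z-FR-AMC; AMC fluorescence increase over 60 s gives rate.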
LASV entry inh: blocks Lassa virus binding to or entry into cells; Lassa virus pseudotype entry inhibition, cell reporter; control for the full effect not named in the record; Potency, µM (highest dose often 37.9 µM), for the others: top-dose activity change, negative = inhibition, most hits filed as inhibitors; 1.2% of 300,000 active; AID 540256; active means well fitted inhibition curve with a large enough effect; inconclusive means small, poorly fitted or top-dose-only effect, or effect the other way; inactive means flat fitted curve, though single readings scatter; tested in HEK293 cells; note: % is set by controls: 0 for no effect and ±100 for the full control effect; nearly all actives have a fitted effect of over 50% in size; luciferase read-out
2A StopGo: FMDV 2A StopGo reporter, luciferase signal | human cells with a luciferase reporter of 2A StopGo recoding; control for the full effect not named in the record | Potency, µM (highest dose often 57.9 µM), without a hit: at the highest dose signal change, negative = less light | 1.2% of 410,000 active | AID 1159524; active = well fitted falling curve with a large enough effect; inconclusive = small, poorly fitted or top-dose-only effect; inactive = no such curve, though single readings can be large or run the other way; tested in HEK293T cells; note: % is set by controls: 0 for no effect and ±100 for the full control effect; nearly all actives have a fitted effect of over 45% in size; luciferase light after 4 h
Cruzain inh Det: blocks cruzain activity in presence of Triton detergent; P25779; purified cruzain, Z-FR-AMC fluorescence, 0.01% Triton; 0.43% of 200,000 active; Potency, µM, inactives show max response, negative = inhibition, most hits filed as inhibitors; active = well fitted curve in the direction sought with a large enough effect; inconclusive = small, poorly fitted or top-dose-only effect, or another doubt; inactive = no such curve, though single readings can be large; an effect the other way counts as inactive or inconclusive;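 note: plate controls were neutral wells for no effect and buffer without enzyme for full effect; nearly all actives have a fitted effect of over 40% in size; top concentration of the series not given in the record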
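Detergent-containing run (0.01% Triton X-100) in acetate buffer pH 5.5 with 5 mM DTT: enzyme at 1.5 nM final, 15 min compound preincubation at room temperature, then 2 uM Z-FR-AMC substrate. Activity taken as 60 s fluorescence increase at 360/450 nm.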
The depositor's hits bear a star; ? = inconclusive; . = no result given; & = joins results of further samples; [ ] = dose if it differs, or a comment. Unless noted, calls come from the whole dose curve; as a rule, active means well fitted rising curve with a large enough effect; inconclusive means small, poorly fitted or top-dose-only effect; inactive means no such curve, though single readings can be large or run the other way. Potency is the fitted concentration of half-maximal effect.

Each structure is followed by: Marburg entry inh | Cruzain inh Det | RE007 growth inh | Cruzain noTriton | LASV entry inh | NS1 inh | SARS PLpro yeast | 2A StopGo
COc1ccc(-c2oc3ccccc3c2C(=O)OCc2ccc([N+](=O)[O-])cc2)cc1
    . | . | -3% | . | . | 5% | 0% | -24%
Cc1cc(C)n(CCc2nc3c4ccccc4nc(N4CCN(c5ccccc5F)CC4)n3n2)n1
    19%[46.1 µM] | 0.6% | . | -4% | . | . | . | -6%
Cc1cccc(CCNC(=O)CC2C(=O)NCCN2CC2CCCCC2)n1 (stereo not drawn)
    -2%[46.1 µM] | . | -13% | . | -6% | 1% | 0% | 21%
CCCCCn1nc(C(=O)N(CCOC)c2c(N)n(CCCC)c(=O)[nH]c2=O)c2ccccc2c1=O
    -20% | . | -15% | . | 3%[46.1 µM] | . | . | 3%
Cc1cnc(CN(C)C(=O)C2CCC(=O)N(CCc3cccc(F)c3)C2)[nH]1 (stereo not drawn)
    . | . | -4% | . | . | 0% | -3% | 0%
Cn1/c(=N/NC(=O)c2ccccc2Br)sc2ccccc21
    ? | . | -10% | . | ? | . | 2% | 28%
CCOC(=O)c1cnn(-c2ccccc2)c1-n1cccc1C(=O)C(=O)Nc1ccc(OC)cc1
    ? | 0.4% | 15% | 3% | -1% | -2% | -4% | ?
CC1CCCC(NC(=O)c2cccc(S(=O)(=O)N3CCN(c4ccccc4)CC3)c2)C1C (stereo not drawn)
    -18% | . | 5% | . | -21% | . | -2% | -20%
CC(=O)c1ccc(NC(=O)CCSCCC(=O)Nc2ccc(C(C)=O)cc2)cc1
    1% | 2.2% | -1% | -3% | 29% | -4% | -9% | 8%
CCOC(=O)C1=C(C)NC(=O)NC1c1ccc([N+](=O)[O-])o1 (stereo not drawn)
    . | . | 9% | . | . | -3% | 1% | 4%
O=C(Nc1cc(S(=O)(=O)Nc2ccc(Cl)cc2)ccc1N1CCCCC1)c1ccc(F)cc1
    ? | -5.1% | -7% | ? | ? | 2% | -5% | 26%
O=C(COC(=O)c1ccc(F)cc1F)NCc1ccc2c(c1)OCO2
    11% | . | -21% | . | 16% | . | -3% | 1%
CCOC(=O)c1c(NC(=O)CS(=O)(=O)c2cn(CC)c3ccccc23)sc2c1CCCCC2
    -16% | -5.2% | 0% | -15% | ? | ? | 4% | -3%
COC(=O)CNC(c1ccccc1)c1cc(Br)ccc1NS(=O)(=O)c1ccccc1 (stereo not drawn)
    ? | -3.3% | -6% | 9% | ? | 26% | -21% | 7%
Cc1ccccc1CN(C)C(=O)CNC(=O)c1ccc2ccccc2c1
    -20% | . | -1% | . | -27% | -11% | -1% | 20%
Cc1nc2ccccc2n1S(=O)(=O)N(C)C
    28% | -3.4% | -14% | -6% | 14% | 0% | -2% | -17%
CCn1c(C(C)NC(=O)c2ccc(C)cc2)n[nH]c1=S (stereo not drawn)
    5% | 1.3% | 0% | -8% | 6% | 24% | 1% | -19%
CCOC(=O)C1CCN(C(=O)CCS(=O)(=O)c2ccc3c(c2)CC(C)N3C(=O)CC)CC1 (stereo not drawn)
    0%[46.1 µM] | . | 3% | . | 6% | . | -1% | -9%
CC(C)NC(=O)C(=O)Nc1cc2c3c(c1)C(C)C(=O)N3CCC2 (stereo not drawn)
    . | . | 0% | . | . | 3% | 1% | 1%
CCOc1cc2nc(-c3ccc(OC)c(OC)c3)nc(N3CC(C)OC(C)C3)c2cc1OC (stereo not drawn)
    2% | -8.6% | . | ? | . | 15% | -1% | .
COc1cc(NS(=O)(=O)c2ccc(NC(=O)CSC3=NCCS3)cc2)nc(OC)n1
    . | -4.2% | . | 0% | . | 21% | 0% | .
C/C(CC(=O)NCc1ccco1)=N\NC(=O)C(c1ccccc1)c1ccccc1
    -4% | 0.2% | 11% | -1% | 3% | 26% | 2% | -19%
COc1c(C)cc(C(=O)C2CCCN(C(=O)Cn3ccc(C)n3)C2)cc1C (stereo not drawn)
    -27%[46.1 µM] | . | -11% | . | 5%[46.1 µM] | 2% | 0% | 14%
COc1ccc(C(=O)Oc2c(Sc3ccccc3)c(C)nn2-c2ccccc2)cc1OC
    30%[46.1 µM] | -3.2% | . | -24% | -5%[46.1 µM] | . | . | -12%
CC1(C)CC(=O)C=C(NCc2ccc(C(=O)O)cc2)C1
    6% | . | 16% | . | . | 0% | 0% | -16%
Cc1sc(NC(=O)c2cccnc2)nc1-c1ccccc1
    . | . | -6% | . | . | -3% | -1% | ?
CCOc1ccccc1NS(=O)(=O)c1cnc(N)nc1
    . | 1.3% | . | -4% | 12%[46.1 µM] | . | . | -11%
CC(Sc1nc(N)c(NC(=O)c2ccc(Br)o2)c(=O)[nH]1)C(=O)O (stereo not drawn)
    6% | . | -12% | . | -2% | 1% | 8% | 1%
Cn1c(=O)c2c(nc(Br)n2CCSc2nc3ccccc3o2)n(C)c1=O
    -16%&-16% | 0.8% | 2% | -4% | -4% | 3% | 0% | -16%
COc1ccc(S(=O)(=O)N2CCC(C(=O)Nc3nccs3)CC2)cc1
    -8% | . | 67% | . | -2% | 8% | 0% | 1%
CCc1nccn1CCC(=O)N1CCCC(N2CCN(c3ccccc3F)CC2)C1 (stereo not drawn)
    3% | . | 1% | . | 15% | -9% | 6% | -4%
COc1ccc(-c2csc3[nH]c(=S)n(-c4ccccc4)c(=O)c23)cc1OC
    -10% | -9.7% | 1% | -2% | -8% | ? | 1% | 3%
CCOC(=O)CSc1nnc(CNC(=O)c2cccc(C)c2)n1C
    -7%[46.1 µM] | . | 16% | . | 2% | . | -4% | -10%
N#C/C(=C\c1ccccc1)C(=O)NCCN1CCOCC1
    10% | . | -8% | . | 5% | . | 0% | 5%
CC(C)OCCCNC(=O)CN1C(=O)CC(C)(C)S(=O)(=O)c2ccccc21
    . | 6.1% | -11% | -5% | . | 6% | -3% | -2%
Cn1c2ccccc2c2cc(/C=N/NC(=O)c3cc(O)ccc3O)ccc21
    -8% | . | -13% | . | ? | 10% | -6% | 20µM*
CCCCCC(=O)Nc1cc(N(C)C)nc2ccccc12
    -5% | -2.2% | 4% | -2% | 1% | -1% | 1% | -8%
Cc1cc(-c2nnnn2-c2ccc(C(F)(F)F)cc2)no1
    -9% | . | -6% | . | 11% | 1% | 1% | -6%
O=C(NCCc1ccccc1)c1ccc(CSc2nc3ccncc3n2Cc2ccc(F)cc2)cc1
    7%[46.1 µM] | -8.3% | . | 0% | -28%[46.1 µM] | . | . | -17%
O=C(Nc1nccs1)C1CC(=O)N(c2ccccc2)C1 (stereo not drawn)
    -2%[46.1 µM] | . | 0% | . | 4%[46.1 µM] | 1% | 0% | 15%
O=C(COC(=O)C12CC3CC(CC(C3)C1)C2)N1CCN(S(=O)(=O)c2ccccc2)CC1
    27% | -2.8% | 4% | -6% | -14% | -35% | -1% | -11%
CSc1ncc(CO)n1Cc1ccccc1
    -5%[46.1 µM] | . | 0% | . | -3% | . | 1% | 5%
CCn1c(=O)c(=O)n(CC)c2cc(N3CCCCC3)c(NC(=O)c3ccc(OC)c(OC)c3)cc21
    5%[46.1 µM] | -0.3% | . | -6% | 14%[46.1 µM] | . | . | -20%
CC1CC(c2ccccc2)n2nc(NC(=O)c3ccco3)nc2N1 (stereo not drawn)
    8%[46.1 µM] | 2.1% | 17% | -4% | 2% | ? | 4% | 7%
CN(C)CCN(C(=O)c1cccc2ccccc12)c1nc2cc3c(cc2s1)OCO3
    ? | . | 15% | . | 20%[46.1 µM] | -14% | 5% | -17%
COc1ccc(C)c2sc(N(CCCN(C)C)C(=O)c3ccc4c(c3)OCCO4)nc12
    ? | . | -2% | . | 10µM* | . | -3% | -17%
COc1cc(NC(=O)Cn2ccsc2=N)c(C)cc1[N+](=O)[O-]
    ? | . | -3% | . | ? | -1% | 1% | -23%
COc1ccc(S(=O)(=O)N2CCN(C(=O)/C=C/c3ccco3)CC2)cc1
    -11%[46.1 µM] | . | -5% | . | ? | . | -2% | -23%
CN(C(=O)C1CCCN(S(=O)(=O)c2cccc([N+](=O)[O-])c2)C1)C1CCS(=O)(=O)C1 (stereo not drawn)
    ? | . | 0% | . | 17% | -2% | 1% | -11%
COc1ccc(NC(=O)CCCS(=O)(=O)c2nc(-c3ccc(OC)c(OC)c3)cc(C(F)(F)F)n2)cc1OC
    ? | -14% | . | ? | ? | . | . | 32µM*
Cc1cc(C)cc(NC(=O)C2C3C=CC4(O3)C2C(=O)N(CCCN2CCCCC2)C4C(=O)NC2CCCCC2)c1 (stereo not drawn)
    -1%[46.1 µM] | . | -4% | . | -1%[46.1 µM] | -3% | -7% | -14%
COc1ccccc1NC(=O)N1CCCC1C(=O)NC1CCCCC1 (stereo not drawn)
    15%[46.1 µM] | 3.5% | 14% | 5% | -23% | 4% | -4% | 16%
Cc1ccc(N(CC(=O)Nc2cccc(Cl)c2C)S(=O)(=O)c2c(C)noc2C)cc1
    -12%[46.1 µM] | -8.0% | . | -3% | -1%[46.1 µM] | . | . | ?
O=C(O)c1ccccc1C(=O)Nc1ccc(S(=O)(=O)NC2CCCCC2)cc1
    -2% | -1.2% | -8% | -12% | 0% | 5% | 5% | -9%
COc1ccccc1OCC(=O)N(Cc1ccc(Cl)cc1)CC1CCCO1 (stereo not drawn)
    5%[46.1 µM] | -3.6% | . | 20% | -18%[46.1 µM] | . | . | 0%
CCn1c(C)cc(/C=C2\NC(=O)N(Cc3ccc(Cl)cc3)C2=O)c1C
    ? | 2.1% | 2% | ? | -2% | 17% | 1% | -6%
CC(C)n1cnnc1SCC(=O)Nc1ccc(N2CCCCC2)cc1
    1%[46.1 µM] | . | 20% | . | 16% | . | ? | -13%
COc1ccc(NS(=O)(=O)c2ccc(C)c(NC(=O)CNC(=O)c3ccco3)c2)cc1
    11% | . | 17% | . | -1% | . | 4% | 40%[activator]
CCC(=O)Nc1ccccc1C(=O)OCC(=O)Nc1ccc(S(N)(=O)=O)cc1
    8% | 1.4% | 10% | -8% | 26% | 0% | -6% | -4%
CN(C(=O)COC(=O)CNS(=O)(=O)/C=C/c1ccccc1)C1CCS(=O)(=O)C1 (stereo not drawn)
    8% | -6.8% | 9% | -10% | ? | 1% | 7% | -19%

Source: PubChem BioAssay
